Hsc70: small molecules displacing fluorescent ligand from Hsc70 – biochemical, fluorescence polarization, primary screen (AID 568); Hsc70 fluorescence polarization, probe displacement; higher % means a stronger effect; strong numbers were not always called active; displacement, % at 20 µM, or IC50 in µM where a hit was titrated; 83,000 tested, under 10 active;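 active = displacement above 50% without optical interference and an IC50 on retest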;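 note: ATPase domain with a fluorescein-tagged ATP probe; 0% = vehicle and 100% = excess ADP; read after one hour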
WNV NS2B-NS3 inh: inhibitors of West Nile virus NS2B-NS3 protease; P06935; WNV NS2B-NS3 protease, fluorogenic substrate Ex360/Em465; stronger effect = lower value; z-score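 (tested at a level between 10 and 100 µM)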; 65,000 tested, 0.18% active; AID 577;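 active = z-score at -3 or under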;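 note: score is relative to mean and spread of the compound wells of a plate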
Target sequence (P06935 1371-1501 limits assumed): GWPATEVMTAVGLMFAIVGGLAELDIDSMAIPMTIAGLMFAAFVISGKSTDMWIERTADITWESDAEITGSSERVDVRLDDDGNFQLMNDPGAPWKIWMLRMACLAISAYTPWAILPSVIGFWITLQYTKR
Target sequence (P06935 1502-1679 limits assumed): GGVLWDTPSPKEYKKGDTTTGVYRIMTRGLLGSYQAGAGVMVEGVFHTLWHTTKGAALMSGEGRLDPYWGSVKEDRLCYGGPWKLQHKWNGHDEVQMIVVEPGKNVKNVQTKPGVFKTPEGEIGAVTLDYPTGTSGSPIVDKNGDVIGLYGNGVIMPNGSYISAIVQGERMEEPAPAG
MT1-MMP reporter: inhibitors of MT1-MMP promoter transcription, cell-based, luciferase reporter, luminescence (AID 618); MT1-MMP promoter luciferase reporter cells, luminescence; calls from a first round at 10 µM; hits with a dose series show EC50 in µM; 87,000 tested, 0.62% active;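 active = over half of the reporter light lost at 10 µM or EC50 under 50 µM; inactive = the rest and hits that failed the dose series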;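 note: actives suppress MT1-MMP promoter-driven transcription so potencies describe inhibitors; HT1080 fibrosarcoma cells; overnight exposure; toxic or luciferase-blocking compounds were not removed from the actives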
Numbers without * were called inactive; i = inactive; · = no result given; + = active, no number. Not all compounds are listed; the hit share may differ from the screen's.

Compound,Hsc70,WNV NS2B-NS3 inh,MT1-MMP reporter
COc1ccc(-c2nn(C)c(=O)c3ccccc23)cc1NS(C)(=O)=O,-3.5%,0.52,i
CC(=O)Nc1ccc(NC(=O)c2cccc(C(=O)OC(C)C)n2)cc1,0.3%,-0.42,i
CN(Cc1ccc(O)cc1)C1CCCCC1,-2.1%,-1,i
Cc1ccc(OCc2nnc(SCC(=O)NCc3ccccc3)n2C)cc1,-0.1%,0.69,i
O=C(Nc1nc(-c2ccccc2)cs1)c1cccs1,-2.7%,-0.17,i
CCOC(=O)c1c(NC(=O)c2ccn(CC)n2)sc2c1CCCC2,9.0%,-0.64,i
COc1ccc(S(=O)(=O)n2nc(OC(=O)c3ccccc3)cc2N)cc1,-3.1%,-6.4*,i
CCN(CC)CC(C)OC(=O)c1cc(OC)c(OC)c(OC)c1 (stereo unspecified),2.6%,·,i
COc1cc(OC)cc(C(=O)N2CCN=C2SCc2cccnc2)c1,-2.2%,0.24,i
CCC(C)(C)n1nnnc1C(c1ccncc1)N1CCC(C)CC1 (stereo unspecified),-1.5%,·,i
Fc1cccc(F)c1CN1CCN(c2ncccn2)CC1,-2.8%,-0.33,i
COc1ccc(Cl)cc1NC(=O)CN1CCC(n2nnc3cc(F)ccc32)CC1,1.9%,-1.3,i
O=S(=O)(c1ccccc1Cl)N1CCCC(c2nc(-c3cccnc3)no2)C1 (stereo unspecified),-3.7%,-1.2,i
CS(=O)(=O)N(CC(=O)N1CCN(c2ccccc2)CC1)c1cccc(Br)c1,-0.5%,0.1,i
COc1ccc(C2C(C(=O)c3ccco3)=C(O)C(=O)N2CCOCCO)cc1OC (stereo unspecified),-1.3%,·,i
CCOC(=O)c1cc2nc(-c3ccco3)cc(C(F)(F)F)n2n1,-9.8%,·,i
CC(NC(=O)C(CC(=O)OC(C)(C)C)NC(=O)OC(C)(C)C)C(N)=O (stereo unspecified),-0.7%,-0.18,i
CSCCC1(C(=O)O)NC(c2ccccc2O)C2C(=O)N(C(C)C)C(=O)C21 (stereo unspecified),-1.2%,1.9,i
Cc1ccc(C)n1-n1cnc2sc(-c3ccccc3)cc2c1=O,-3.2%,0.48,i
CCc1ccc2[nH]c(=O)c(CN(Cc3ccccc3OC)C(=O)Nc3ccccc3OC)cc2c1,-1.2%,·,i
Cc1cc(-n2c(C)cc(C(=O)COC(=O)CN=C3NS(=O)(=O)c4ccccc43)c2C)no1,2.0%,1.3,i
O=C(CCCOc1ccc(Cl)cc1)NCC1CCCO1 (stereo unspecified),0.8%,·,i
CN(CCNC(=O)C1CCN(S(=O)(=O)N2CCOCC2)CC1)CCc1ccccc1,-3.4%,-0.55,i
CCCNc1nc(Nc2ccc(C)cc2)nc(N2CCCC2)n1,-0.4%,·,i
CC(C)CN(C(=O)COC(=O)Cc1c[nH]c2ccccc12)C1CCS(=O)(=O)C1 (stereo unspecified),-2.4%,-0.72,i
Cc1onc(-c2c(Cl)cccc2Cl)c1C(=O)NCc1ccccn1,0.8%,-0.61,i
Cc1cccc(C)c1NC(=O)CSc1nnc(-c2ccco2)c(-c2ccco2)n1,-2.6%,·,i
CCOc1cc(-c2c(C#N)c(=O)[nH]c3c2c(C)nn3-c2ccc(F)cc2)ccc1O,4.9%,-0.13,i
CCCCOC(=O)Nc1ccc2c(C)cc(=O)oc2c1,-1.3%,·,i
CCS(=O)(=O)N1CCCC(C(=O)NCCCOC)C1 (stereo unspecified),-1.0%,-0.78,i
COc1ccc(S(=O)(=O)N(CC(=O)Nc2ccc3c(c2)OCO3)c2ccccc2OC)cc1,-1.9%,-0.81,i
Cc1nn(Cc2ccccc2)c2sc(C(=O)NCc3cccnc3)cc12,3.2%,-0.29,i
O=C1CC(NNC(=O)c2ccccc2)C(=O)N1 (stereo unspecified),-5.4%,·,i
O=C(Nc1nncs1)c1cccc(S(=O)(=O)N2CCCCC2)c1,4.6%,·,i
CCCOP(=O)(c1ccc(N(C)C)cc1)C(O)c1ccncc1 (stereo unspecified),2.2%,-1.1,i
CCOC(=O)CSc1nnc(NCC(=O)OC(C)C)c(=O)[nH]1,-1.1%,-1,i
CSC1=NCCN1C(=O)c1c(F)cccc1F,4.7%,-0.52,i
COc1cc2cc(C(c3nnnn3C3CCCC3)N3CCCCCC3)c(=O)[nH]c2cc1OC (stereo unspecified),-5.0%,-0.23,i
COC(=O)c1nc2n(n1)C(c1ccccc1OC)C1=C(CCCC1=O)N2 (stereo unspecified),2.7%,0.31,i
COc1ccc(-c2cc(-c3ccccc3)nc(N3CCCC3)n2)cc1OC,-3.4%,1.2,i
Cc1cc(=O)n2nc(N3CCCC(C(=O)N4CCc5ccccc54)C3)sc2n1 (stereo unspecified),-6.2%,-1.2,i
O=C(Nc1ccc(N2CCCC2)c(Cl)c1)c1ccc2c(c1)OCCO2,1.2%,·,i
CCOCCCn1cnc2c([nH]c3cc(OC)ccc32)c1=O,-0.5%,-0.45,i
Cc1cccc(NC(=O)c2cc3n(n2)C(C(F)(F)F)CC(c2ccc4c(c2)OCO4)N3)c1 (stereo unspecified),-4.9%,0.14,i
CCC(=O)c1ccc(N2CCCC2)c(F)c1,-0.2%,·,i
COc1ccc(/C(O)=C2\C(=O)C(=O)N(CCCN(C)C)C2c2ccccc2F)cc1Cl (stereo unspecified),7.7%,-0.44,i
COc1cccc(NC(=O)NCCCSC2CCCCC2)c1,-0.2%,·,i
Nc1nnc(N2CCCCCC2)s1,-3.0%,3.4,i
COCCn1c(C)cc(C(=O)CSc2nc3ccccc3c(=O)[nH]2)c1C,-7.1%,-0.06,i
COc1ccccc1C(c1nnnn1Cc1ccco1)N1CCN(c2cccc(C)c2C)CC1 (stereo unspecified),3.6%,·,i
COC(=O)CNC(=O)C(C)NC(=O)OCc1ccccc1 (stereo unspecified),0.4%,-0.7,i
CCOC(=O)N1CCN(c2nc3ccccc3nc2C(C#N)S(=O)(=O)c2ccc(C)cc2)CC1 (stereo unspecified),11%,0.77,i
Cc1ccc(NC(=O)c2csnn2)c(C)c1,0.6%,·,i
O=C(NC1CCCC1)C1CCN(S(=O)(=O)c2cccc3cccnc23)CC1,-2.7%,0.61,i
CC1=NN(c2nc(C)cc(C)n2)C(=O)C1CCC(C)C (stereo unspecified),-4.3%,·,i
O=C(NCc1ccc2c(c1)OCO2)c1cccnc1,-4.0%,1,i
CCCOc1ccc(C(C)=O)cc1CC(C(=O)OCC)C(=O)OCC,-1.6%,·,i
CCOC(=O)C1CCN(S(=O)(=O)c2cc(Cl)c(C)cc2OC)CC1,-0.1%,0.6,i
Cc1cc(C)cc(Oc2ccc(N)cc2)c1,1.4%,0.3,i
CC(=O)Oc1cccc(N2C(=O)c3ccc(C(=O)O)cc3C2=O)c1,-3.4%,-0.01,i

Looked up above:
Hsc70, COc1cccc(NC(=O)NCCCSC2CCCCC2)c1 stands at -0.2%
Hsc70, O=C(Nc1nncs1)c1cccc(S(=O)(=O)N2CCCCC2)c1 stands at 4.6%
Hsc70, Cc1ccc(NC(=O)c2csnn2)c(C)c1 stands at 0.6%
WNV NS2B-NS3 inh, COc1cc2cc(C(c3nnnn3C3CCCC3)N3CCCCCC3)c(=O)[nH]c2cc1OC (stereo unspecified) stands at -0.23

Fetched by structure from the entries so far (2):
Compound,Hsc70,WNV NS2B-NS3 inh,MT1-MMP reporter
O=C(NC1CCCC1)C1CCN(S(=O)(=O)c2cccc3cccnc23)CC1,-2.7%,0.61,i
CSC1=NCCN1C(=O)c1c(F)cccc1F,4.7%,-0.52,i

Whole records as entered above.
`CCOC(=O)N1CCN(c2nc3ccccc3nc2C(C#N)S(=O)(=O)c2ccc(C)cc2)CC1` (stereo unspecified) across the screens: Hsc70 = 11%; WNV NS2B-NS3 inh = 0.77; MT1-MMP reporter = i
`Cc1cc(=O)n2nc(N3CCCC(C(=O)N4CCc5ccccc54)C3)sc2n1` (stereo unspecified) across the screens: Hsc70 = -6.2%; WNV NS2B-NS3 inh = -1.2; MT1-MMP reporter = i

Other entries.
Compound,Hsc70,WNV NS2B-NS3 inh,MT1-MMP reporter
COc1ccccc1C1C(C#N)=C(N)Oc2cc(C)n(CCCn3ccnc3)c(=O)c21 (stereo unspecified),1.2%,1.3,i
CCOC(=O)Cc1[nH]nc2c1C(c1ccoc1)C(C#N)=C(N)O2 (stereo unspecified),-1.3%,-0.37,i
O=C(c1ccc(F)cc1)N(Cc1ccccc1)C1CCS(=O)(=O)C1 (stereo unspecified),0.3%,-0.84,i
COc1ccc(NC(=O)c2cccs2)cc1NC(=O)c1ccco1,0.8%,·,i
CCCOC(=O)c1[nH]c2c(c1C)C(=O)CC(c1ccc(OC)c(OC)c1)C2 (stereo unspecified),1.9%,0.79,i
N[C@@H](Cc1cc(I)c(Oc2cc(I)c(O)c(I)c2)c(I)c1)C(=O)O,0.1%,·,i
CCN1C(=O)c2cccc3c(S(=O)(=O)Nc4ccc(OC)cc4OC)ccc1c23,3.4%,-0.9,i
Cc1cc(NC(=O)CSc2nc3ccsc3c(=O)n2Cc2ccccn2)n[nH]1,1.4%,-1.5,i
O=c1c2ccccc2nc(SCc2nc(-c3ccccc3)no2)n1-c1ccc(F)cc1,4.1%,0.21,i
CCn1cc(C2Nc3ccccc3C(=O)N2O)c(C)n1 (stereo unspecified),1.0%,0.16,i
CCOc1nc(C)ccc1-c1noc(-c2ccccn2)n1,-6.2%,1.7,i
COCCCn1c(SCC(=O)NCc2ccco2)nc2sc3c(c2c1=O)CCC3,5.1%,0.02,i
CCOC(=O)c1sc2ncn(C(CC)C(=O)OCC)c(=O)c2c1C (stereo unspecified),3.6%,-0.87,i
COc1cccc(N2CCN(CC(=O)Nc3nc4c(s3)CC(C)CC4)CC2)c1 (stereo unspecified),-1.6%,-0.16,i
O=C(Cn1nc(C(F)(F)F)c2c1CCC2)NCc1ccc(F)cc1,0.3%,-0.64,i
Cc1ccc(Nc2nc(N)nc(CN3CCC(C)CC3)n2)c(C)c1,3.0%,·,i
COC(=O)Nc1sc2c(c1C(=O)N1CCOCC1)CCC(C)C2 (stereo unspecified),3.8%,1.8,i
O=C(O)c1ccc(CN2C(=O)c3ccccc3S2(=O)=O)cc1,7.0%,-0.9,i
Cc1cc2ccccc2n1CCNC(=O)C(C)(C)C,2.3%,-0.97,i
COc1cc(C2NC(=O)NC(C)=C2C(=O)OC(C)C)ccc1OC(=O)c1ccco1 (stereo unspecified),6.3%,·,i
Cn1cc(S(=O)(=O)CC(=O)N2CCc3ccccc32)c2ccccc21,-3.7%,0.16,i
COc1cccc(-n2c(Cc3cc(=O)[nH]c(=O)[nH]3)nnc2SCC(=O)NC2CCCC2)c1,0.4%,-0.56,i
O=C(NC1=NCCS1)c1ccc(Br)s1,1.6%,·,i
O=C(NC1CCN(C(=O)Nc2cccc(F)c2)CC1)C1CCCCC1,-3.7%,-0.17,i
Cc1ccc(S(=O)(=O)N2CCN(C(=O)COc3ccc(-c4nnco4)cc3)CC2)cc1,3.7%,-0.18,i
O=C(c1nc2ccccc2s1)N1CCSCC1,2.8%,-0.79,i
COc1nonc1NCn1nc(C)cc1C,-2.6%,0.8,i
Cc1cc(NC(=O)CSc2nnc(CNc3cccc(C(F)(F)F)c3)n2Cc2ccco2)no1,-2.4%,-0.53,i
COc1cccc(C(=O)Oc2cc(N)n(S(=O)(=O)c3ccc(C)cc3)n2)c1OC,3.5%,-0.9,i
c1ccc2c(c1)CCCn1nnnc1-2,4.6%,0.84,i
CCCCSc1[nH]c(=O)c(C(=O)OCC)cc1C#N,-6.2%,·,i
Cc1c(NC(=O)CN2C(=O)c3cccc4cccc2c34)c(=O)n(-c2ccccc2)n1C,-5.5%,0.48,i
Cc1ccc(-c2cc(C(=O)OCC(=O)Nc3cc(C)on3)c3ccccc3n2)c(C)c1,-2.9%,0.14,i
COc1ccc(-c2cc(C(=O)NC(C(=O)O)C(C)C)c(C)o2)cc1OC (stereo unspecified),3.0%,-0.33,i
CN(C)c1ccc(N/C=C/C(=O)c2ccccc2)cc1,-40%,-1.3,+
COC(=O)CSc1nnc(C)n1-c1ccc(C)cc1,-0.4%,·,i
O=C(NCc1cccnc1)c1cc(-c2cccs2)on1,8.5%,0.11,i
O=C(O)Cn1c(SCc2ccccc2)nc2ccccc21,-5.2%,·,i
O=C(O)c1ccccc1NS(=O)(=O)c1cccc2cccnc12,-0.3%,-0.81,i
Cc1ccc(-c2noc(CSc3nc(N)cc(N)n3)n2)cc1,-0.3%,-0.41,i
O=C(NC1=NCCS1)C12CC3CC(C1)CC(C(=O)NC1=NCCS1)(C3)C2,0.3%,-0.16,i
CCCS(=O)(=O)N1CCN(Cc2ccco2)CC1,-3.0%,-1.1,i

Assay outcomes (PubChem BioAssay)
